D2 potentiator: potentiates the human D2 dopamine receptor allosterically | 0.23% of 360,000 active | DiscoveRx D2 beta-arrestin cells, luminescence, 90 min; 100% = 57 uM dopamine signal | P14416 | potentiation, % (no concentration beside the values); active = potentiation of 50% or more; inconclusive = 30% to 50%; inactive = 30% or less;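 further: compound concentration not given in the record; tested on top of an EC20 dose of dopamine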
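PathHunter D2 cells, attached overnight at 37 deg C, received compound in DMSO plus dopamine at EC20 (50 nM final) for 90 min at 37 deg C. Beta-arrestin recruitment was read as luminescence after 1 h with detection reagent at ambient temperature.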
Six1-Eya2 inh: Six1/Eya2 interaction inhibition. Q15475+O00167. AlphaScreen GST-Six1/His-Eya2 binding, biochemical; hits give low values; control for the full effect not named in the record. activity change, % (test concentration not listed). 0.56% of 360,000 active. AID 651725; in the data active = activity change below about -65%; inconclusive = about -30% to -65%; inactive = above about -30%; further: on the % scale 0 is the no-effect control and ±100 the full control effect; compound concentration not given in the record
Target sequence (O00167 whole entry, looked up): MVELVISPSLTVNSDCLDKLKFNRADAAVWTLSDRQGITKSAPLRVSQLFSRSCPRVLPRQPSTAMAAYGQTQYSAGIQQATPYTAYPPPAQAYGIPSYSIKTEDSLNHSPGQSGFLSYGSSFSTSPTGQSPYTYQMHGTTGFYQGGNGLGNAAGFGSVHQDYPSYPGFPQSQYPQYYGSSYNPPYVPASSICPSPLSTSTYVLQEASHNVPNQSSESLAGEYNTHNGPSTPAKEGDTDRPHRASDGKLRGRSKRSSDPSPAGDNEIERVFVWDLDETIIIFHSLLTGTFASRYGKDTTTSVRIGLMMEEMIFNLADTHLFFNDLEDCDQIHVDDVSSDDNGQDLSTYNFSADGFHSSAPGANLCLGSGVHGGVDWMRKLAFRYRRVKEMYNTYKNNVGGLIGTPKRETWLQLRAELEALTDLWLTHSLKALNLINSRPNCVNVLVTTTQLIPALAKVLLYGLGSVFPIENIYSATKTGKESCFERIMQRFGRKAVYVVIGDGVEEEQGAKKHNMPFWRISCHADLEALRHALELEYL
Target sequence (Q15475 whole entry, looked up): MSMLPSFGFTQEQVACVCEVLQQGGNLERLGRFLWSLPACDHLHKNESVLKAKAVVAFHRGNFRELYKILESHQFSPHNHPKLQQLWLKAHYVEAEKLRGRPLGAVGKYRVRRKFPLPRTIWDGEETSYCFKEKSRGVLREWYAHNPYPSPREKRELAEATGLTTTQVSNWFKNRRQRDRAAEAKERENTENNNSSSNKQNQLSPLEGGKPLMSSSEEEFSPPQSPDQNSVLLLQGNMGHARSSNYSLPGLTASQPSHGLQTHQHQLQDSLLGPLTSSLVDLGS
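GST-Six1 + His-Eya2 (5X stock: 250/500 nM); Tris pH 8.0, 300 mM NaCl, 0.05% BSA, 0.02% Tween 20; GSH donor/Ni acceptor beads; 1 h 37 °C dark; AlphaScreen readout.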
PINK1 modulator: modulators of PINK1 expression | AID 624263 | 0.2% of 410,000 active | Potency, µM (doses to about 76.6 µM), without a hit: at the top dose activation (PINK1 increase), actives largely listed as activators | PINK1 immunofluorescence, high-content cytometry, 24 h; active = well fitted activation curve with a large enough effect; inconclusive = small, poorly fitted or top-dose-only effect; inactive = flat fitted curve, though single readings scatter; cell line not stated here;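 further: potency means the concentration at half of the fitted maximal effect; % of control where 0% means no effect; nearly all actives have a fitted effect of over 65% in size; a mitochondrial uncoupler was the plate control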
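A stable cell line was treated with compounds at 5 concentrations for 24 hours, with CCCP as control. PINK1 levels and mitochondrial localization were measured by immunofluorescence with mitochondrial, cell and nuclear markers after fixation, read by laser-scanning cytometry.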
D2 agonist: agonists of human D2 dopamine receptor (beta-arrestin); AID 624465; DiscoveRx PathHunter D2 beta-arrestin, luminescence, 90 min; 100% = 57 uM dopamine signal; activation, % (no concentration beside the values); 0.084% of 360,000 active; P14416; in the data active = activation above about 40%; inconclusive = about 15% to 40%; inactive = below about 15%; further: compound concentration not given in the record; the text of the record calls up to 30% inactive
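Agonist mode: compounds alone added to overnight-plated D2 PathHunter cells for 90 min at 37 C, with 57 uM final dopamine (EC100) defining full response. Beta-arrestin recruitment detected by chemiluminescent reagent, read after 1 h at ambient temperature.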
TRPML1 ag: activates the human TRPML1 channel. Q9GZU1. activation, % (no concentration beside the values). TRPML1-expressing cells, Ca2+ dye fluorescence, FDSS; host cell line not named in the record; reference of the full effect not given here. 0.12% of 410,000 active; in the data active = activation above about 50%; inconclusive = about 30% to 50%; inactive = below about 30%; further: 0% is about no effect; the text of the record puts the active cut at 80%
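Tet-induced TRPML1-DL cells, 1,500 per well, cultured overnight, were loaded with a no-wash Ca2+ dye for 45–90 min. Calcium fluorescence was recorded on the FDSS for 110 s after compound addition, before the EC80 agonist (4 uM 54-4) was added.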
TRPML1 inh: human mucolipin-1 channel inhibition; Q9GZU1; TRPML1-inducible cells, Ca2+ dye fluorescence, FDSS; hits give low values; inhibition of EC80 agonist-evoked calcium signal; activity change, negative = inhibition, % (no concentration beside the values); 0.02% of 390,000 active; AID 624415; in the data active means activity change below about -50%; inconclusive means about -30% to -50%; inactive means above about -30%;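 further: stimulus is agonist 54-4 at its EC80 concentration; on the % scale 0 is the no-effect control and ±100 the full control effect; compound concentration not given in the record; the text of the record puts the active cut at -80%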
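Calcium fluorescence in TRPML1-DL cells induced overnight with Tet: a 110 s read after compound pin addition, then a 110 s antagonist read after challenge with 54-4 at 4 uM final (EC80).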
* marks the source's active call; other numbers are inactive results; ? = inconclusive; . = no result given; [ ] = remark or other dose.

Each structure is followed by: D2 potentiator, Six1-Eya2 inh, PINK1 modulator, D2 agonist, TRPML1 ag, TRPML1 inh
CCN(CC(=O)Nc1ccc(NC(C)=O)cc1)C(=O)CCCOc1cccc(C)c1
 : 12.4, -5.3, -1.0%, 4.6, 1.1, 17.7
CC(=O)c1ccc(N2CCN(Cc3nc(Cc4ccccc4)no3)CC2)cc1
 : -2.0, -0.5, 2.3%, 0.7, -1.1, 5.8
COCCCNC(=O)C1CCN(c2ccc(N3CCOCC3)nn2)CC1
 : -3.7, -29.7, 0.8%, -4.4, ., .
CCOC(=O)CC(NS(=O)(=O)c1ccc(NC(C)=O)cc1)c1ccc(OCC)cc1 (configuration not stated)
 : 3.7, 3.8, -1.8%, -1.0, -0.4, -3.3
CCOc1ccc(C2C(=O)N(C3CCCCCC3)CC(=O)N2Cc2ccc(F)cc2)cc1OC (configuration not stated)
 : ., ., 0.5%, ., 0.5, -0.3
O=C(C1=C[C@H](c2ccc3c(c2)OCO3)C[C@H](OCCCCO)O1)N1CCN(Cc2ccc3c(c2)OCO3)CC1
 : -18.8, -5.5, -1.4%, -0.9, -0.2, 1.4
COC(=O)c1[nH]c2cc(OC)ccc2c1NC(=O)CCN1CCCCC1
 : -22.7, 6.1, 0.1%, -3.3, -0.3, -12.2
CCN(CC)c1ccc(/C=N/NS(=O)(=O)c2ccc(C)c([N+](=O)[O-])c2)cc1
 : -10.2, -16.7, 4.0%, -9.6, 0.8, -3.5
COc1ccc(CCN2CC(O)=C(c3nc(C)cs3)C2=N)cc1OC
 : 1.5, -23.8, 30.7%[38.3 µM], -3.7, -0.7, 8.2
O=C(NCc1cccc(C(F)(F)F)c1)C1CC(c2ccccc2[N+](=O)[O-])=NO1 (configuration not stated)
 : -4.7, -1.0, 3.3%, 1.4, 0.1, 21.4
COc1cc(-c2cc(-c3ccccc3)nc(SCC(=O)Nc3nccs3)c2C#N)cc(OC)c1OC
 : -2.1, 8.4, 7.6%, 0.0, 3.7, -14.7
O=C(CCCCCn1c(=O)[nH]c2ccsc2c1=O)N1CCCCC1
 : -6.9, -2.6, -0.6%, -3.2, 1.3, 4.7
COc1cc2ncnc(NCc3ccccc3Cl)c2cc1OC
 : -12.8, -3.5, 2.0%, -3.8, 0.3, -14.3
O=c1nccc(N/N=C/c2ccccc2)[nH]1
 : 1.7, 2.2, -0.7%, 6.1, ., .
Nc1ccc2cn[nH]c2c1
 : 3.9, -2.4, 0.5%, 0.8, 0.5, 11.0
C=C(C)COc1ccc2c(C)c(C)c(=O)oc2c1OCC(=C)C
 : -10.2, 21.2, -2.3%, -3.1, 2.6, -13.5
Cc1cc(=O)n2[nH]c(C)cc2n1
 : -1.4, -5.7, 0.6%, 0.5, -0.5, -8.7
Cc1nnc2sc(-c3cccc4ccccc34)nn12
 : -3.2, -1.6, -4.2%, -2.7, 0.8, -5.9
O=C(CN(c1ccc(F)cc1)S(=O)(=O)c1ccc2c(c1)OCCO2)NCc1cccnc1
 : 0.0, -2.9, 0.8%, -2.2, -1.0, 4.7
CCOc1ccccc1CN1CCNC(=O)C1CC(=O)NCCN1CCOC1=O (configuration not stated)
 : -10.8, -1.2, -1.0%, -1.3, -0.7, 5.9

Sorted by number of heavy atoms (lowest first): twelve of the compounds above.
Each structure is followed by: D2 potentiator, Six1-Eya2 inh, PINK1 modulator, D2 agonist, TRPML1 ag, TRPML1 inh
Cc1cc(=O)n2[nH]c(C)cc2n1
 : -1.4, -5.7, 0.6%, 0.5, -0.5, -8.7
O=c1nccc(N/N=C/c2ccccc2)[nH]1
 : 1.7, 2.2, -0.7%, 6.1, ., .
Cc1nnc2sc(-c3cccc4ccccc34)nn12
 : -3.2, -1.6, -4.2%, -2.7, 0.8, -5.9
C=C(C)COc1ccc2c(C)c(C)c(=O)oc2c1OCC(=C)C
 : -10.2, 21.2, -2.3%, -3.1, 2.6, -13.5
COc1ccc(CCN2CC(O)=C(c3nc(C)cs3)C2=N)cc1OC
 : 1.5, -23.8, 30.7%[38.3 µM], -3.7, -0.7, 8.2
COCCCNC(=O)C1CCN(c2ccc(N3CCOCC3)nn2)CC1
 : -3.7, -29.7, 0.8%, -4.4, ., .
CC(=O)c1ccc(N2CCN(Cc3nc(Cc4ccccc4)no3)CC2)cc1
 : -2.0, -0.5, 2.3%, 0.7, -1.1, 5.8
CCOc1ccccc1CN1CCNC(=O)C1CC(=O)NCCN1CCOC1=O (configuration not stated)
 : -10.8, -1.2, -1.0%, -1.3, -0.7, 5.9
CCN(CC(=O)Nc1ccc(NC(C)=O)cc1)C(=O)CCCOc1cccc(C)c1
 : 12.4, -5.3, -1.0%, 4.6, 1.1, 17.7
O=C(CN(c1ccc(F)cc1)S(=O)(=O)c1ccc2c(c1)OCCO2)NCc1cccnc1
 : 0.0, -2.9, 0.8%, -2.2, -1.0, 4.7
COc1cc(-c2cc(-c3ccccc3)nc(SCC(=O)Nc3nccs3)c2C#N)cc(OC)c1OC
 : -2.1, 8.4, 7.6%, 0.0, 3.7, -14.7
O=C(C1=C[C@H](c2ccc3c(c2)OCO3)C[C@H](OCCCCO)O1)N1CCN(Cc2ccc3c(c2)OCO3)CC1
 : -18.8, -5.5, -1.4%, -0.9, -0.2, 1.4

(list continues)
Each structure is followed by: D2 potentiator, Six1-Eya2 inh, PINK1 modulator, D2 agonist, TRPML1 ag, TRPML1 inh
CC(C)OCCCNc1ncnc2c1[nH]c1ccccc12
 : -12.5, -1.8, 4.0%[38.3 µM], -3.5, 3.6, 6.2
Cc1ccc(N2C(=O)C3CCC(c4ccccc4)CC3C2=O)cc1 (configuration not stated)
 : -19.8, 13.7, -0.2%, 2.5, 1.6, -3.4
COc1ccc(-c2noc(N3CCC(C(=O)NC(C)c4ccccc4)CC3)n2)cc1 (configuration not stated)
 : -1.1, 2.8, 4.4%, -2.1, -0.1, 0.1
CCN(CC(=O)NCc1cccs1)C(=O)CN(C)S(=O)(=O)c1ccc(C)cc1
 : -3.2, 1.0, -1.6%, -2.9, 0.3, -2.5
CC(C)n1c(C(O)c2ccccc2)nc2ccccc21 (configuration not stated)
 : -4.5, 3.9, -0.1%[38.3 µM], 2.0, 0.4, 11.1
CC(C)CCC(C(=O)O)C(C)CC(=O)NC1CCCCC1 (configuration not stated)
 : -5.8, 1.8, 2.9%[38.3 µM], 0.7, -0.8, 25.0
Cc1nc2cc(NC(=O)N3CCC(c4ccccc4)C3)ccc2n1C (configuration not stated)
 : -4.2, 0.1, ., -2.4, -0.4, 0.1
COc1ccc(-c2cc3nc(NCc4ccc(N(C)C)cc4)n(C)c(=O)c3s2)cc1OC
 : ?, ?, 5.5%, 12.6, -1.1, .
Clc1ccc(CNc2nc3ccccc3c3nc(-c4cccnc4)nn23)cc1
 : ., ., -0.8%, ., -0.7, 11.2
COc1cccc(CNC(=O)CCC2CCCN(C(=O)Cc3ccccc3F)C2)c1 (configuration not stated)
 : -0.9, 2.2, -0.8%, -1.9, 1.0, -14.3
OC(c1ccc2ccccc2c1)c1ncc(-c2cccc3ccccc23)[nH]1 (configuration not stated)
 : -9.2, -27.9, 1.8%, -4.4, 0.9, .
Cc1ccc(Oc2ccc(-c3nc(N)nc(N)n3)cc2)cc1C
 : -3.0, -6.0, ?, 0.1, 0.2, -6.6
O=P(O)(Cc1ccccc1)Cc1ccccc1
 : 0.8, 13.0, 1.1%, -1.5, 0.2, -3.3
O=C1c2cccnc2C(=O)N1c1ccccc1-c1ccccc1
 : -15.5, -14.1, 1.0%, -2.9, -0.6, -14.1
CC1Nc2ccccc2C(=O)N1NS(C)(=O)=O (configuration not stated)
 : -0.7, 10.7, -0.9%, -1.7, -0.5, 3.5
Cc1ccc(S(=O)(=O)Oc2ccc(/C=C3\C(=N)N4N=C(S(C)(=O)=O)SC4=NC3=O)cc2)cc1
 : -11.7, -9.2, 1.6%, -2.2, 1.0, -3.8
CCCc1nn2c(=O)cc(CSCC(=O)Nc3ccc(OC)cc3)nc2s1
 : 2.2, 0.3, -0.9%, 1.2, -0.1, 23.0
Cn1c2ccccc2c2c(C(=O)N3CCN(C(=O)c4ccco4)CC3)cn(C3CCCCC3)c(=O)c21
 : -1.6, -2.1, 0.5%, 0.0, 0.7, -0.6
CCOC(=O)C1CCN(C(=O)c2ccc(OC3CCN(C(=O)COC)CC3)cc2)CC1
 : -6.1, -14.8, 0.6%, 3.3, 0.5, -16.1
CC(NC(=O)c1cccc(S(=O)(=O)N2CCN(C)CC2)c1)C1CC2CCC1C2 (configuration not stated)
 : 2.2, 31.2, 0.2%, -4.8, -0.4, -9.8
CCOc1ccc(S(=O)(=O)NCC2CCCO2)c2cccnc12 (configuration not stated)
 : 23.9, 1.5, 1.7%, -2.3, -0.3, -3.5
O=C(CCNc1ccc(F)c(Cl)c1)c1ccco1
 : 8.4, -9.7, -2.6%[38.3 µM], 0.2, -0.5, -5.1
COc1ccc(C(=O)N=c2sc3c(C)ccc(OC)c3n2C)cc1
 : -8.1, 0.2, 4.9%, -2.2, 0.2, 11.0
c1ccc(-c2nc(-c3ccccn3)no2)cc1
 : -2.6, -0.4, -2.7%[38.3 µM], -1.8, 1.1, -0.1
CNC(=O)c1sc(SC)cc1-c1ccc(Cl)cc1
 : -8.2, 14.3, 0.7%, -0.6, 0.2, 4.6
Cn1ncc2c(Nc3cccc4ccccc34)ncnc21
 : -2.5, -1.9, -0.9%, -3.0, 0.8, 4.2
COc1ccc(NC(=O)C2(c3cccs3)CCOCC2)cc1Cl
 : ., ., 1.6%, ., 0.3, 1.9
Cc1cc(C(=O)N/N=C/c2cccs2)n[nH]1
 : -1.4, -5.8, 2.9%, -6.3, -0.7, 12.9
Cc1ccc(C(O)c2ncc(-c3ccc4ccccc4c3)[nH]2)cc1 (configuration not stated)
 : -14.4, ?, 2.8%, -2.1, -0.9, .
COc1ccc(Cc2nc3ccc(C(=O)NCc4ccccc4C)cc3o2)cc1
 : ., ., 0.2%, ., 0.7, 10.9
CCc1ccccc1NC(=O)CN(C)Cc1nc(N)nc(Nc2ccccc2C)n1
 : -4.9, -1.7, 1.7%, -0.9, 0.5, -0.1
Cc1cc(Nc2cccc(Cl)c2)nc2ccc(NC(=O)c3cncc(Br)c3)cc12
 : ., ., -1.9%, ., -0.3, -6.8
CCOC(=O)c1cc(C(C)(C)C)oc1CNC(=O)c1c(C)oc2c1CCCC2
 : -27.2, -3.4, -0.5%, -1.4, 1.4, 23.4
COC(=O)Cc1cc(=O)n2[nH]c(C)c(-c3ccccc3)c2n1
 : 10.3, -1.9, 1.3%, -1.6, -1.0, -2.2
C/C(=N\O)C(=O)NCc1ccccn1
 : -18.1, -7.4, -1.6%, -2.1, 1.4, 23.5
Cc1ccc(C)c(N2CCN(C(=O)CCS(=O)(=O)c3cccc4nonc34)CC2)c1
 : -21.4, -6.3, -0.1%, -1.3, 0.1, 34.4
CCOc1ccc2c(C)c(C)c(=O)oc2c1OCC
 : 5.2, 6.4, 2.0%[38.3 µM], -2.0, 4.5, 32.5
CC1=C(C(=O)Nc2cc(-c3cccc(F)c3)[nH]n2)C2(CCCCC2)OC1=O
 : -3.5, -1.7, 2.4%, 0.6, 0.7, 48.0

Hits appear at their usual frequency; 1% or so of the library scored in one or more.
